# NOMO-1 viab: STK33 inhibitor candidate reducing NOMO-1 cell viability; inhibition, % (no concentration beside the values); AID 2330; NOMO-1 AML viability, CellTiter-Glo luminescence, 72 h; hit rate 7.5% among 37,000;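 active = most replicates above 80%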;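 also: wells of about 30 µL received 25 nL stock; 0% = median of vehicle wells and 100% = reference inhibitor level; the first replicate is given; inactives centre near 10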
# * marks the source's active call; other numbers are inactive results. A portion of the library. The share of hits here may be higher or lower than overall.
SMILES	NOMO-1 viab
COc1ccc(S(=O)(=O)Nc2ccc3c(c2)C(=O)N([C@H](C)CO)C[C@H](C)[C@H](CN(C)C(=O)Nc2ccccc2)O3)cc1	4.1
O=C(O)CNC(=O)CN1C(=O)c2ccccc2C1=O	-15.6
COC(=O)c1c(NC(=O)C(C)C)sc2c1CCC2	17.3
Cc1ccc(S(=O)(=O)Nc2cccc3c2O[C@@H](CN(C)C)[C@H](C)CN([C@@H](C)CO)C3=O)cc1	-3.7
CCCCCCC/C=C/C(=O)CCc1ccc(O)c(OC)c1	116.4*
O=C(Cn1nc(-c2cccc([N+](=O)[O-])c2)c2ccccc2c1=O)Nc1ccc(F)cc1	-5.5
COc1cccc(OC)c1C(=O)N(Cc1nc(-c2ccc(Cl)cc2)no1)C(C)C	57.1
O=C(COc1cccc(NC(=O)c2ccc([N+](=O)[O-])cc2)c1)c1ccc(Br)cc1	17.3
COc1ccccc1NC(=O)CNS(=O)(=O)c1ccc(C)cc1	-4.4
CN(C)CCCNc1oc(-c2ccccc2F)nc1C#N	4.8

# The list continues.
SMILES	NOMO-1 viab
C[C@H]1CN([C@@H](C)CO)C(=O)c2cccc(NC(=O)c3cnccn3)c2O[C@@H]1CN(C)CC1CC1	0.9
C[C@@H]1CCCCO[C@H](CN(C)C(=O)Nc2ccc(C(F)(F)F)cc2)[C@@H](C)CN([C@H](C)CO)C(=O)c2cc(NC(=O)C3CCCCC3)ccc2O1	24.2
COc1ccc(-c2cc(=O)c3c(O)c(OC)c(O)c(OC)c3o2)cc1	0.8
COc1cccc(-c2cc(C(F)(F)F)n3nc(C(=O)Nc4cc(C)nn4-c4ccccc4)cc3n2)c1	28.9
C[C@H](CO)N1C[C@H](C)[C@H](CN(C)S(=O)(=O)c2ccccc2)Oc2ccc(NC(=O)Cc3cn(C)c4ccccc34)cc2CC1=O	3.4
CC(C)NC(=O)Nc1ccc2c(c1)CC(=O)N([C@@H](C)CO)C[C@@H](C)[C@@H](CN(C)C)O2	-9.5
C[C@@H]1CN([C@H](C)CO)C(=O)c2cccc(NC(=O)c3nc4ccccc4s3)c2O[C@H]1CN(C)Cc1ccc2c(c1)OCO2	97.6*
CNC[C@@H]1Oc2ccc(NC(=O)C3CC3)cc2CC(=O)N([C@@H](C)CO)C[C@@H]1C	-13.2
C[C@@H]1CN([C@@H](C)CO)C(=O)c2cc(NC(=O)Nc3ccc(C(F)(F)F)cc3)ccc2O[C@H]1CN(C)C	9.1
C[C@H](CO)N1C[C@H](C)[C@H](CN(C)C(=O)Nc2cccc3ccccc23)Oc2ccc(NC(=O)C3CCCCC3)cc2CC1=O	12.9

# (list continues)
SMILES	NOMO-1 viab
NC(=O)c1ccccc1NC(=O)COc1cccc2ccccc12	14.7
Cc1ccc(S(=O)(=O)Nc2ccc3c(c2)CC(=O)N([C@@H](C)CO)C[C@H](C)[C@H](CN(C)Cc2ccc(C(=O)O)cc2)O3)cc1	-5.0
C[C@H](CO)N1C[C@H](C)[C@H](CN(C)Cc2ccc(Oc3ccccc3)cc2)Oc2ccc(NC(=O)Nc3ccc4c(c3)OCO4)cc2C1=O	19.2
O=C(CSc1nnnn1-c1ccccc1)Nc1cccc2nsnc12	-10.5
CC(C)NC(=O)Nc1cccc2c1O[C@H](CN(C)Cc1ccccc1)[C@H](C)CN([C@H](C)CO)C2=O	-12.8
CC(=O)C(C#N)C(=O)Nc1ccc(OC(F)(F)F)cc1 (configuration not stated)	41.2
Cc1noc(C)c1S(=O)(=O)Nc1cccc2c1O[C@@H](CN(C)S(C)(=O)=O)[C@@H](C)CN([C@@H](C)CO)C2=O	14.6
Cc1noc(C)c1S(=O)(=O)N(C)C[C@H]1Oc2ccc(NS(=O)(=O)c3cn(C)cn3)cc2CC(=O)N([C@@H](C)CO)C[C@@H]1C	9.6
Cc1noc(C)c1S(=O)(=O)Nc1ccc2c(c1)C(=O)N([C@@H](C)CO)C[C@@H](C)[C@@H](CN(C)C(=O)Nc1ccc(C(F)(F)F)cc1)O2	26.0
C[C@H]1CN([C@@H](C)CO)C(=O)c2cc(NC(=O)Cc3cn(C)c4ccccc34)ccc2O[C@H]1CN(C)Cc1ccc(Cl)c(Cl)c1	84.0*

# Next part
SMILES	NOMO-1 viab
C[C@H]1CN([C@@H](C)CO)C(=O)c2cc(NS(=O)(=O)c3cn(C)cn3)ccc2O[C@H]1CN(C)C	-6.8
C[C@@H]1CCCCO[C@H](CN(C)C(=O)Nc2cccc3ccccc23)[C@@H](C)CN([C@H](C)CO)C(=O)c2cc(NS(=O)(=O)c3ccc(F)cc3)ccc2O1	93.8*
COC(=O)C1=C(C)NC(C)=C(C(=O)OC)C1C	23.7
Cc1noc(C)c1NC(=O)Nc1cccc2c1O[C@H](CN(C)S(=O)(=O)c1ccc(F)cc1)[C@@H](C)CN([C@@H](C)CO)C2=O	-12.3
C[C@@H]1CN([C@H](C)CO)C(=O)c2cc(NC(=O)Nc3ccc4c(c3)OCO4)ccc2O[C@H]1CN(C)C	-19.9
Cc1ccccc1-c1noc(CCC(=O)Nc2cccc(C)c2C)n1	17.7
C[C@@H]1CN([C@@H](C)CO)C(=O)c2cccc(NS(=O)(=O)c3ccc(Cl)cc3)c2O[C@@H]1CN(C)Cc1ccncc1	7.7
Cc1ccc(S(=O)(=O)N(C)C[C@H]2OCCCC[C@@H](C)Oc3ccc(NS(=O)(=O)c4cn(C)cn4)cc3C(=O)N([C@H](C)CO)C[C@@H]2C)cc1	14.9
COc1ccc(CN(C)C[C@@H]2Oc3ccc(NC(=O)Cc4cn(C)c5ccccc45)cc3C(=O)N([C@H](C)CO)C[C@H]2C)cc1	3.8
C[C@H]1CN([C@@H](C)CO)C(=O)c2cc(NC(=O)NC3CCCCC3)ccc2O[C@@H]1CN(C)C(=O)Nc1ccccc1	2.2

# The list goes on.
SMILES	NOMO-1 viab
Cc1c(NC(=O)COc2ccc(C(C)C)cc2)cccc1C(=O)O	-1.2
O=C(CSc1ncnc2sc3c(c12)CCCC3)N1CCC(c2noc3ccc(F)cc23)CC1	32.0
C[C@H]1CN([C@@H](C)CO)C(=O)c2cc(N(C)C)ccc2O[C@@H]1CN(C)C(=O)Nc1ccc(F)cc1	23.5
COc1ccc(NC(=O)CNC(=O)c2ccc(F)cc2)cc1	-21.7
COc1ccc(NC(=O)Nc2ccc3c(c2)CC(=O)N([C@@H](C)CO)C[C@H](C)[C@@H](CN(C)S(=O)(=O)c2ccc(Cl)cc2)O3)cc1	28.9
Cc1noc(C)c1S(=O)(=O)Nc1ccc2c(c1)C(=O)N([C@H](C)CO)C[C@@H](C)[C@@H](CN(C)S(=O)(=O)c1ccccc1)O2	15.9
CC(NS(=O)(=O)c1ccccc1)C(=O)Nc1ccc(I)cc1 (configuration not stated)	-6.1
C[C@@H]1CN([C@@H](C)CO)C(=O)c2cc(NC(=O)Cc3cn(C)c4ccccc34)ccc2O[C@@H]1CN(C)C	-3.2
COc1ccc(CN(C)C[C@@H]2Oc3ccc(NS(=O)(=O)c4c(C)noc4C)cc3C(=O)N([C@H](C)CO)C[C@H]2C)cc1	4.7
Cc1ccc(S(=O)(=O)N(C)C[C@@H]2Oc3ccc(NC(=O)CCCCCC(=O)Nc4ccccc4N)cc3C(=O)N([C@H](C)CO)C[C@H]2C)cc1	54.5

# (continued)
SMILES	NOMO-1 viab
C[C@@H]1CN([C@@H](C)CO)C(=O)c2cccc(N(C)C)c2O[C@@H]1CN(C)S(=O)(=O)c1ccc(F)cc1	6.8
Cc1ccc(S(=O)(=O)Nc2ccc3c(c2)C(=O)N([C@@H](C)CO)C[C@H](C)[C@@H](CN(C)Cc2ccc(C(=O)O)cc2)O3)cc1	5.9
C[C@H]1CN([C@@H](C)CO)C(=O)c2cc(NC(=O)C3CC3)ccc2O[C@H]1CN(C)C(=O)NC1CCCCC1	-12.0
CC(Oc1ccc(Cl)cc1Cl)C(=O)Nc1cccc(NC(=O)c2ccc(Cl)cc2Cl)c1 (configuration not stated)	17.3
CNC[C@H]1Oc2ccc(NC(=O)Nc3c(C)noc3C)cc2C(=O)N([C@@H](C)CO)C[C@H]1C	31.4
Cc1csc(Nc2ccc(F)c(Cl)c2)[n+]1C(C)C	30.8
CC1CCCCN1Cc1nc(N)nc(Nc2ccc3c(c2)OCCO3)n1 (configuration not stated)	19.3
O=C(CSC1CC(=O)N(c2ccccc2F)C1=O)Nc1ccc(Cl)cc1 (configuration not stated)	-16.9
O=C(/C=C/S(=O)(=O)c1ccc(Cl)cc1)c1ccc(F)cc1	120.4*
Cc1ccc(S(=O)(=O)N(C)C[C@@H]2Oc3c(NC(=O)C4CCOCC4)cccc3C(=O)N([C@@H](C)CO)C[C@@H]2C)cc1	29.0

# Later entries.
SMILES	NOMO-1 viab
C[C@H]1CN([C@@H](C)CO)C(=O)Cc2cc(NC(=O)Nc3ccc4c(c3)OCO4)ccc2O[C@H]1CN(C)Cc1ccncc1	5.0
O=C(CCc1ccc(O)cc1)c1c(O)cc(O[C@@H]2O[C@H](CO)[C@@H](O)[C@H](O)[C@H]2O)cc1O	2.0
C[C@H](CO)N1C[C@H](C)[C@H](CN(C)C(=O)Nc2cccc3ccccc23)Oc2c(NS(=O)(=O)c3ccccc3)cccc2C1=O	-0.9
Cc1ccc(F)c(NC(=O)CSc2nnnn2-c2ccccc2)c1	26.0
C[C@H](CO)N1C[C@H](C)[C@H](CN(C)CC2CCCCC2)Oc2ccc(NC(=O)Cc3ccccc3)cc2CC1=O	27.6
COc1ccc([N+](=O)[O-])cc1NC(=O)C(C)N(c1ccc(Cl)cc1)S(C)(=O)=O (configuration not stated)	38.7
Cc1ccc(S(=O)(=O)N(C)C[C@H]2Oc3ccc(NS(=O)(=O)c4ccc(F)cc4)cc3C(=O)N([C@H](C)CO)C[C@@H]2C)cc1	19.9
C[C@H]1CN([C@@H](C)CO)C(=O)Cc2cc(NS(=O)(=O)c3ccc(F)cc3)ccc2O[C@@H]1CN(C)S(=O)(=O)c1ccccc1	45.8
COc1ccc(CN(C)C[C@H]2OCCCC[C@@H](C)Oc3ccc(NC(=O)NC4CCCCC4)cc3C(=O)N([C@H](C)CO)C[C@@H]2C)cc1	27.7
Cc1ccc(-n2c(C)nnc2SCC(=O)Nc2ccc(C)cc2Br)cc1	3.7

# Exported field by field: entries from further up
COc1ccc(CN(C)C[C@H]2OCCCC[C@@H](C)Oc3ccc(NC(=O)NC4CCCCC4)cc3C(=O)N([C@H](C)CO)C[C@@H]2C)cc1
  NOMO-1 viab: 27.7

C[C@H](CO)N1C[C@H](C)[C@H](CN(C)CC2CCCCC2)Oc2ccc(NC(=O)Cc3ccccc3)cc2CC1=O
  NOMO-1 viab: 27.6

# New compounds follow
SMILES	NOMO-1 viab
CC(C)(C)C1CCc2c(sc(NC(=O)CSc3n[nH]c(-c4ccncc4)n3)c2C#N)C1 (configuration not stated)	-3.1
C[C@H]1CN([C@@H](C)CO)C(=O)Cc2cc(NC(=O)CCC(F)(F)F)ccc2O[C@H]1CN(C)C	-12.2
C[C@@H]1CCCCO[C@H](CN(C)C)[C@@H](C)CN([C@H](C)CO)C(=O)c2cc(NC(=O)CCC(F)(F)F)ccc2O1	-19.3
COc1ccc(CN(C)C[C@@H]2OCCCC[C@@H](C)Oc3ccc(NS(C)(=O)=O)cc3C(=O)N([C@H](C)CO)C[C@@H]2C)cc1	19.5
CC(=O)c1cccc(NC(=O)CN(C)S(=O)(=O)c2ccc3ccccc3c2)c1	19.7
COc1ccc(NC(=O)CCSc2ccc([N+](=O)[O-])cc2)cc1	19.0
CC(C)NC(=O)Nc1ccc2c(c1)C(=O)N([C@@H](C)CO)C[C@@H](C)[C@H](CN(C)Cc1ccc(C(=O)Nc3ccccc3N)cc1)O2	46.9
N#CCc1ccc(NC(=O)Cc2ccccc2[N+](=O)[O-])cc1	30.3
C[C@@H]1CN([C@H](C)CO)C(=O)c2cc(NS(=O)(=O)c3ccc(F)cc3)ccc2O[C@H]1CN(C)S(C)(=O)=O	14.9
CCN(CC(=O)Nc1ccc(Br)cc1F)S(=O)(=O)c1ccc2ccccc2c1	6.3

# Quoted at random: five records from the list, in no set order.
SMILES	NOMO-1 viab
CC(C)(C)C1CCc2c(sc(NC(=O)CSc3n[nH]c(-c4ccncc4)n3)c2C#N)C1 (configuration not stated)	-3.1
COc1ccc(NC(=O)CCSc2ccc([N+](=O)[O-])cc2)cc1	19.0
C[C@H]1CN([C@@H](C)CO)C(=O)Cc2cc(NC(=O)CCC(F)(F)F)ccc2O[C@H]1CN(C)C	-12.2
N#CCc1ccc(NC(=O)Cc2ccccc2[N+](=O)[O-])cc1	30.3
CCN(CC(=O)Nc1ccc(Br)cc1F)S(=O)(=O)c1ccc2ccccc2c1	6.3

# Further structures.
SMILES	NOMO-1 viab
O=C(Cn1cnc2ccccc2c1=O)Nc1cccc(Cl)c1Cl	8.6
COCC(=O)Nc1sc2c(c1C(=O)OC)C(C(=O)OC)CC2 (configuration not stated)	8.2
Cc1ccc(C(=O)CC(C(=O)O)N2CCN(C)CC2)cc1 (configuration not stated)	13.8
CC(C)C(NS(=O)(=O)c1ccc(F)c(Cl)c1)C(=O)O (configuration not stated)	-18.9
COc1ccc(S(=O)(=O)Nc2ccc3c(c2)C(=O)N([C@@H](C)CO)C[C@@H](C)[C@@H](CN(C)Cc2ccc(C(=O)O)cc2)O3)cc1	5.8
Cn1c(SCC(=O)c2cc(C(C)(C)C)c(O)c(C(C)(C)C)c2)nnc1-c1cccs1	18.8
Cc1ccc(-c2nnc3c4ccccc4c(C)nn23)cc1S(=O)(=O)N1CCOCC1	4.2
Cc1ccc(S(=O)(=O)N(C)C[C@H]2Oc3ccc(N(C)C)cc3CC(=O)N([C@H](C)CO)C[C@H]2C)cc1	21.9
COc1ccc(NC(=O)Nc2ccc3c(c2)CC(=O)N([C@H](C)CO)C[C@@H](C)[C@@H](CN(C)C(=O)Nc2ccc4c(c2)OCO4)O3)cc1	-5.3
COc1ccc(NC(=O)N(C)C[C@H]2Oc3ccc(NS(=O)(=O)c4cn(C)cn4)cc3CC(=O)N([C@@H](C)CO)C[C@@H]2C)cc1	-1.6
C[C@@H]1CN([C@@H](C)CO)C(=O)c2cccc(NC(=O)Nc3ccc(F)cc3)c2O[C@@H]1CN(C)Cc1ccncc1	-2.0
CCn1c(SCc2nc3ccccc3c(=O)[nH]2)nnc1-c1ccccc1F	9.2
